FGF22 binding = binders of recombinant human FGF22 by thermal shift. 340,000 compounds, 1.5% hits. calls only at 9.99 µM. SYPRO orange fluorescence; percent of sucrose octasulfate shift, DMSO zero;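 active = melting point raised past a set limit in the mean and every replicate; three in four hits are not shown here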
Target sequence (Q9HCT0 whole entry, looked up): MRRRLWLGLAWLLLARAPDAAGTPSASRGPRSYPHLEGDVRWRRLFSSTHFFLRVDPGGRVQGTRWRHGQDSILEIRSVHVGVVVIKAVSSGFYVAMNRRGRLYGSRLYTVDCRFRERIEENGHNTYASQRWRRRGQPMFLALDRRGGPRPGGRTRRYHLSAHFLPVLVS
Calls only; i = inactive. Some of the compounds tested, so the mix of outcomes need not match the whole.

FGF22 binding,mol
i,COc1ccccc1NC(=O)N1C[C@H](O)COC[C@@H]2O[C@@H](CC(=O)NCc3ccccc3)CC[C@H]21
i,CO[C@H]1CN(C)C(=O)c2ccc(NS(=O)(=O)c3cn(C)cn3)cc2OC[C@@H](C)N(Cc2cccc(F)c2)C[C@H]1C
i,Cc1[nH]c2ccccc2c1C(=O)c1c(N)[nH]c(C(=O)c2ccc(Br)cc2)c1-c1ccc(Br)cc1
i,COc1ccc(S(=O)(=O)Nc2cccc3c2O[C@@H](CN(C)C(=O)Nc2ccc(F)cc2)[C@@H](C)CN([C@H](C)CO)C3=O)cc1
i,C[C@@H]1CN([C@H](C)CO)C(=O)c2cccc(NS(=O)(=O)c3ccc(F)cc3)c2O[C@@H]1CN(C)Cc1ccc(C(F)(F)F)cc1
i,OC[C@@H]1[C@@H](c2ccc(C#Cc3cccnc3)cc2)[C@H]2CN(Cc3ccccc3F)CCCCN12
i,COCC(=O)N1C[C@H](C)[C@H](OC)CN(C)C(=O)c2ccc(NC(=O)c3cnccn3)cc2OC[C@H]1C
i,CCCC(=O)Nc1ccc2c(c1)C(=O)N(C)C[C@H](OC)[C@@H](C)CN(CC1CCCC1)[C@@H](C)CO2
i,CO[C@@H]1CN(C)C(=O)c2ccc(NC(=O)c3ccccc3)cc2OC[C@H](C)N(CC2CC2)C[C@H]1C
i,C/C=C/c1ccc([C@H]2[C@@H](CO)N[C@@H]2CN(CC)C(=O)c2ccccn2)cc1
i,O=C(NCC[C@@H]1CC[C@H](NC(=O)c2cnccn2)[C@H](CO)O1)c1ccc2c(c1)OCO2
i,CCC(=O)N(C)C[C@H]1Oc2ncc(C#CC3(O)CCCC3)cc2C(=O)N([C@H](C)CO)C[C@@H]1C
i,COCCNC(=O)C[C@H]1CC[C@@H]2[C@H](COC[C@H](O)CN2C(=O)Nc2ccccc2OC)O1
i,O=C(C[C@H]1CC[C@H](NC(=O)C2CCOCC2)[C@@H](CO)O1)Nc1nccs1
i,C[C@H](CO)N1C[C@H](C)[C@@H](CN(C)Cc2ccc(Oc3ccccc3)cc2)Oc2ccc(NC(=O)Nc3cccc4ccccc34)cc2CC1=O
i,CCNC(=O)C[C@H]1CC[C@@H]2[C@H](COc3ccc(NC(=O)Nc4cccc(F)c4)cc3C(=O)N2C)O1
i,Cc1noc(C)c1S(=O)(=O)N(C)C[C@H]1Oc2c(NC(=O)c3ccc(-c4nccs4)cc3)cccc2C(=O)N([C@@H](C)CO)C[C@H]1C
i,Cc1noc(C)c1S(=O)(=O)N(C)C[C@H]1OCCCC[C@@H](C)Oc2ccc(NS(=O)(=O)c3ccc(Cl)cc3)cc2C(=O)N([C@H](C)CO)C[C@@H]1C
i,CCC(=O)N1CC2(C1)[C@@H](c1ccc(-c3ccc(C)cc3)cc1)[C@@H](CO)N2S(C)(=O)=O
i,Cn1cnc(S(=O)(=O)N[C@H]2CC[C@H](CC(=O)NCC3CC3)O[C@H]2CO)c1
i,COc1ccc(-c2cccc(-c3nc(C(=O)NCC(F)(F)F)cc4c3[C@H](CCO)N([S@@](=O)C(C)(C)C)C4)c2)cc1
i,CNC(=O)C[C@H]1CC[C@@H]2[C@H](COc3ccc(NC(=O)NCc4ccccc4)cc3C(=O)N2C)O1
i,C[C@H]1CN([C@@H](C)CO)C(=O)Cc2cc(NS(C)(=O)=O)ccc2O[C@@H]1CN(C)Cc1ccccc1
i,CCCNC(=O)N1CC2(C1)CN(C(=O)CCC)[C@@H](CO)c1[nH]c3cc(OC)ccc3c12
i,C[C@@H]1CN([C@@H](C)CO)C(=O)c2cc(NS(=O)(=O)c3ccc(Cl)cc3)ccc2O[C@H]1CN(C)C(=O)Nc1ccc2c(c1)OCO2
i,CC(C)NC(=O)Nc1ccc2c(c1)CC(=O)N([C@@H](C)CO)C[C@@H](C)[C@@H](CN(C)Cc1ccc(Cl)c(Cl)c1)O2
i,O=C(C[C@H]1CC[C@H]2[C@@H](COC[C@H](O)CN2S(=O)(=O)c2cccc(F)c2)O1)Nc1ccccc1
i,CN1c2ccc(-c3ccc(C#N)cc3)cc2[C@H]2[C@H](CCN2S(=O)(=O)c2cccc(F)c2)[C@@H]1CO
i,C[C@H]1CCCCO[C@@H](CN(C)CC2CCCCC2)[C@@H](C)CN([C@@H](C)CO)C(=O)c2cc(NC(=O)Nc3ccccc3)ccc2O1
i,C[C@@H]1CN([C@@H](C)CO)S(=O)(=O)c2ccc(-c3ccccc3)cc2O[C@H]1CN(C)C(=O)Nc1ccccc1F
i,CN1C(=O)c2cc(NC(=O)c3ccc(F)cc3)ccc2OC[C@H]2O[C@@H](CC(=O)NCC3CCCCC3)CC[C@H]21
i,OC[C@@H]1[C@H](c2ccccc2)[C@@H](CNCC2CCC2)N1CC1CC1
i,COc1ccc(NC(=O)Nc2ccc3c(c2)C(=O)N([C@H](C)CO)C[C@@H](C)[C@H](CN(C)Cc2ccc(Cl)c(Cl)c2)OCCCC[C@H](C)O3)cc1
i,Cc1noc(C)c1S(=O)(=O)N(C)C[C@@H]1OCCCC[C@@H](C)Oc2ccc(NC(=O)Nc3cccc4ccccc34)cc2C(=O)N([C@H](C)CO)C[C@H]1C
i,CN(C)C(=O)c1cccc(-c2ccc(C3[C@H]4CNC[C@@H]3N4Cc3ccc4c(c3)OCO4)cc2)c1 (stereo partly specified)
i,O=C(Cc1ccccn1)N[C@H]1CC[C@H](CCNS(=O)(=O)c2cccc(F)c2)O[C@@H]1CO
i,Cc1noc(C)c1NC(=O)Nc1ccc2c(c1)C(=O)N([C@@H](C)CO)C[C@H](C)[C@H](CN(C)Cc1ccc3c(c1)OCO3)O2
i,COc1ccc(S(=O)(=O)N[C@@H]2CC[C@@H](CC(=O)N3CCc4ccccc4C3)O[C@@H]2CO)cc1
i,CC(C)c1cn(CC[C@@H]2CC[C@@H](NS(=O)(=O)c3ccccc3)[C@H](CO)O2)nn1
i,C[C@H]1CN([C@@H](C)CO)C(=O)c2cccc(NS(=O)(=O)c3ccc(F)cc3)c2O[C@H]1CN(C)Cc1ccc(C(=O)Nc2ccccc2N)cc1
i,COCC(=O)Nc1ccc2c(c1)C(=O)N(C)C[C@H](OC)[C@@H](C)CN(CC1CCCCC1)[C@H](C)CO2
i,COc1ccc2c3c([nH]c2c1)[C@@H](CO)N(C(=O)c1cccnc1)CC31CN(Cc2cccnc2)C1
i,COc1ccc2c3c(n(C)c2c1)[C@@H](CO)N(C(=O)Nc1ccc(F)cc1)CC31CN(C(=O)c2ccccc2F)C1
i,C[C@@H]1CN([C@H](C)CO)C(=O)c2cc(C3=CCCCC3)cnc2O[C@H]1CN(C)C(=O)c1cccc(F)c1
i,C[C@H]1CN([C@@H](C)CO)C(=O)c2cc(C#CCN(C)C)cnc2O[C@H]1CN(C)C(=O)CN1CCOCC1
i,COc1cccc(C(=O)N2C[C@@H]3[C@H](c4ccccc42)[C@H](CO)N3C(=O)c2cccc(F)c2)c1
i,O=C(C[C@H]1C=C[C@@H](NS(=O)(=O)c2ccc(F)cc2)[C@@H](CO)O1)NCCN1CCCCC1
i,CCCNC(=O)N1[C@H](C#N)[C@@H](c2ccc(-c3cccc(OC)c3)cc2)[C@@H]1CO
i,C#CCN(CC=C(C)C)[C@H](CO)c1ccccc1
i,C[C@H](CO)N1C[C@H](C)[C@@H](CN(C)C(=O)Cc2ccccc2)Oc2ncc(-c3ccccc3)cc2C1=O
i,COCC(=O)N1C[C@H](C)[C@@H](OC)CN(C)C(=O)c2ccc(NC(=O)C3CCC3)cc2OC[C@@H]1C
i,CN1C(=O)c2cc(NS(C)(=O)=O)ccc2OC[C@@H]2O[C@@H](CC(=O)NC3CCCCC3)CC[C@H]21
i,C[C@@H]1CN([C@H](C)CO)C(=O)c2cc(NS(=O)(=O)c3cccs3)ccc2O[C@H]1CN(C)C(=O)Nc1ccc(F)cc1
i,O=C(O)C[C@H]1C[C@H]2c3cc(NC(=O)Nc4ccc(F)cc4)ccc3O[C@H]2[C@@H](CO)O1
i,CO[C@H]1CN(C)C(=O)c2cc(NS(=O)(=O)c3ccccc3)ccc2OC[C@H](C)N(Cc2ccccn2)C[C@H]1C
i,COCCNC(=O)C[C@H]1C=C[C@H](NC(=O)NC2CCCC2)[C@H](CO)O1
i,COc1ccccc1NC(=O)N(C)C[C@H]1Oc2ncc(C#CC(C)C)cc2C(=O)N([C@H](C)CO)C[C@H]1C
i,C[C@@H]1CN([C@@H](C)CO)C(=O)c2cc(NC(=O)C3CC3)ccc2O[C@@H]1CN(C)S(=O)(=O)c1cccs1
i,C[C@@H]1CN([C@@H](C)CO)C(=O)c2cccc(NS(=O)(=O)c3ccccc3)c2O[C@@H]1CN(C)Cc1ccncc1
i,C[C@@H]1CN([C@@H](C)CO)C(=O)c2cc(NC(=O)Cc3ccccc3)ccc2O[C@H]1CN(C)S(=O)(=O)c1ccccc1

Reprinted at random: seven records from the list.
FGF22 binding,mol
i,COc1ccccc1NC(=O)N(C)C[C@H]1Oc2ncc(C#CC(C)C)cc2C(=O)N([C@H](C)CO)C[C@H]1C
i,COCC(=O)N1C[C@H](C)[C@@H](OC)CN(C)C(=O)c2ccc(NC(=O)C3CCC3)cc2OC[C@@H]1C
i,O=C(O)C[C@H]1C[C@H]2c3cc(NC(=O)Nc4ccc(F)cc4)ccc3O[C@H]2[C@@H](CO)O1
i,C[C@H](CO)N1C[C@H](C)[C@@H](CN(C)C(=O)Cc2ccccc2)Oc2ncc(-c3ccccc3)cc2C1=O
i,C[C@@H]1CN([C@@H](C)CO)C(=O)c2cc(NC(=O)C3CC3)ccc2O[C@@H]1CN(C)S(=O)(=O)c1cccs1
i,CN1C(=O)c2cc(NS(C)(=O)=O)ccc2OC[C@@H]2O[C@@H](CC(=O)NC3CCCCC3)CC[C@H]21
i,C[C@@H]1CN([C@@H](C)CO)C(=O)c2cccc(NS(=O)(=O)c3ccccc3)c2O[C@@H]1CN(C)Cc1ccncc1

(more compounds)
FGF22 binding,mol
i,COc1ccc(NC(=O)Nc2ccc3c(c2)OC[C@@H](C)NC[C@H](C)[C@H](OC)CN(C)C3=O)cc1
i,C[C@H](CO)N1C[C@H](C)[C@H](CN(C)C(=O)Nc2ccc(F)cc2)Oc2ccc(NC(=O)CCN3CCOCC3)cc2CC1=O
i,CN1CCN(C(=O)C[C@@H]2C[C@@H]3c4cc(NC(=O)Nc5ccc(F)cc5)ccc4O[C@@H]3[C@H](CO)O2)CC1
i,C[C@@H]1CCCCO[C@H](CN(C)Cc2ccc3c(c2)OCO3)[C@H](C)CN([C@H](C)CO)C(=O)c2cc(NC(=O)Nc3ccccc3)ccc2O1
i,CN(C)C(=O)C[C@H]1CC[C@H]2[C@@H](COC[C@@H](O)CN2CC2CCOCC2)O1
i,CCCNC(=O)N1C[C@H](C)[C@H](OC)CN(C)C(=O)c2ccc(NC(=O)CCC)cc2OC[C@H]1C
i,Cc1ccc(S(=O)(=O)N(C)C[C@H]2Oc3cc(C#Cc4ccccc4)ccc3S(=O)(=O)N([C@H](C)CO)C[C@H]2C)cc1
i,COc1ccccc1-c1ccccc1[C@@H]1[C@@H](CO)N(C(=O)C2CCOCC2)[C@H]1C#N
i,Cc1ccc(S(=O)(=O)N(C)C[C@H]2Oc3ccc(NC(=O)NC4CCCCC4)cc3C(=O)N([C@H](C)CO)C[C@@H]2C)cc1
i,C/C=C/c1ccc([C@H]2[C@@H](CO)N3C(=O)CN(C(=O)Nc4ccc(F)cc4)C[C@H]23)cc1
i,C[C@@H]1CN([C@@H](C)CO)C(=O)Cc2cc(NC(=O)Cc3ccccc3)ccc2O[C@H]1CN(C)C(=O)Nc1ccccc1
i,C[C@H]1CN([C@@H](C)CO)C(=O)c2cccc(NS(=O)(=O)c3ccccc3)c2O[C@@H]1CN(C)Cc1ccc2c(c1)OCO2
i,COCC(=O)Nc1ccc2c(c1)[C@H]1C[C@@H](CC(=O)NCc3ccccc3)O[C@@H](CO)[C@H]1O2
i,O=C(C[C@@H]1C[C@H]2c3cc(NC(=O)c4cccnc4)ccc3O[C@H]2[C@@H](CO)O1)NCc1ccncc1
i,COc1ccc(S(=O)(=O)N(C)C[C@@H]2Oc3c(NS(=O)(=O)c4ccc(Cl)cc4)cccc3C(=O)N([C@@H](C)CO)C[C@@H]2C)cc1

Ordered by molecular weight (ascending): some entries from above.
FGF22 binding,mol
i,CN(C)C(=O)C[C@H]1CC[C@H]2[C@@H](COC[C@@H](O)CN2CC2CCOCC2)O1
i,C/C=C/c1ccc([C@H]2[C@@H](CO)N3C(=O)CN(C(=O)Nc4ccc(F)cc4)C[C@H]23)cc1
i,COc1ccc(NC(=O)Nc2ccc3c(c2)OC[C@@H](C)NC[C@H](C)[C@H](OC)CN(C)C3=O)cc1
i,CN1CCN(C(=O)C[C@@H]2C[C@@H]3c4cc(NC(=O)Nc5ccc(F)cc5)ccc4O[C@@H]3[C@H](CO)O2)CC1
i,Cc1ccc(S(=O)(=O)N(C)C[C@H]2Oc3cc(C#Cc4ccccc4)ccc3S(=O)(=O)N([C@H](C)CO)C[C@H]2C)cc1

Next section
FGF22 binding,mol
i,COC(=O)C[C@@H]1CC[C@H]2[C@@H](COc3ccc(NC(=O)c4cccc(OC)c4)cc3C(=O)N2C)O1
i,C[C@@H]1CN([C@H](C)CO)C(=O)c2cc(NS(=O)(=O)c3ccccc3)ccc2O[C@@H](C)CCCCO[C@H]1CN(C)C(=O)c1ccccc1
i,OC[C@@H]1[C@H]2c3ccccc3OC1(CO)N=C1SCc3ccccc3CN12
i,C[C@H](CO)N1C[C@H](C)[C@@H](CN(C)Cc2ccc(C(=O)Nc3ccccc3N)cc2)Oc2c(NC(=O)c3nc4ccccc4s3)cccc2C1=O
i,COCC(=O)Nc1ccc2c(c1)OC[C@H](C)N(Cc1ccccc1)C[C@H](C)[C@@H](OC)CN(C)C2=O
i,CNC[C@@H]1Oc2ccc(NC(=O)NC(C)C)cc2C(=O)N([C@H](C)CO)C[C@H]1C
i,CCCNC(=O)NC[C@@H]1[C@@H](c2ccc(C3=CCCC3)cc2)[C@@H](CO)N1C(=O)CC
i,O=C(Nc1ccc(Cl)cc1)N[C@H]1CC[C@H](CCNC(=O)c2ccccc2F)O[C@@H]1CO
i,C[C@@H]1CN([C@H](C)CO)C(=O)c2cc(NS(=O)(=O)c3cn(C)cn3)ccc2O[C@@H](C)CCCCO[C@H]1CN(C)C(=O)Nc1ccc(F)cc1
